Vaccinia Venus – inhibitors of vaccinia virus (Venus reporter); Vaccinia virus Venus reporter expression, fluorescence; Potency, µM (series often up to 36.5 µM), without a hit: top-dose activity change, negative = inhibition, actives largely listed as inhibitors; 0.46% of 330,000 active; AID 720580; active means well fitted inhibition curve with a large enough effect; inconclusive means small, poorly fitted or top-dose-only effect; inactive means no such curve, though single readings can be large or run the other way; tested in A549 cells; further: nearly all actives have a fitted effect of over 30% in size; inactives centre near -10
Vaccinia mCherry – vaccinia inhibition (mCherry reporter); Vaccinia virus mCherry reporter infection, fluorescence; about a quarter of the inactives have no number; 0.63% of 310,000 active; Potency, µM (highest dose often 36.5 µM), without a hit: top-dose activity change, negative = inhibition, most hits filed as inhibitors; AID 720579; active = well fitted inhibition curve with a large enough effect; inconclusive = small, poorly fitted or top-dose-only effect; inactive = no such curve, though single readings can be large or run the other way; tested in A549 cells; further: nearly all actives have a fitted effect of over 35% in size; inactives centre near -10
Starred values were filed as active, the others as inactive; i = inactive; ? = inconclusive; / = no result given; [ ] = remark or other dose. On the % scale 0 is the no-effect control and ±100 the full control effect; potency means the concentration at half of the fitted maximal effect.

Screens in order – Vaccinia Venus	Vaccinia mCherry
CC1(C(=O)Nc2ccc3c(c2)OCCO3)CN(S(C)(=O)=O)CC(=O)N1CCc1ccc(O)cc1 (configuration not stated)
    -10%	i
Cc1ccccc1-n1c(SCC(=O)Nc2cccc3ccccc23)nc(O)cc1=O
    -17%	i
CCn1c(SCC(=O)Nc2cccc(OC)c2)nnc1-c1ccc(Cl)cc1
    -12%	-13%
Cc1ccc(NC(=O)CN(C)C(=O)CCC(=O)c2cccs2)cc1
    -7%	-9%
O=[N+]([O-])c1cc(S(=O)(=O)C(F)(F)F)ccc1Sc1nc2ccccc2[nH]1
    -12%	-28%
CC1=CC(C2CC(=O)N(c3ccc(C)cc3)C2=O)CC2C(=O)N(c3ccc(C)cc3)C(=O)C12 (configuration not stated)
    -7%	-3%
CC(=O)NC(NC(C)=O)c1ccc(Br)cc1
    -1%	-15%
CCC(C)NC(=O)c1ccccc1SC (configuration not stated)
    -6%	-4%
CSc1nc(N)c(C(=O)N(c2ccccc2)c2ccccc2)s1
    -17%	-28%
CCOC(=O)c1ccc(NC(=O)c2nc[nH]c2C(=O)N[C@H](C)c2ccccc2)cc1
    ?	?
CCCOc1cccc(C(=O)NC(=S)Nc2cccc(NC(=O)c3ccccc3Cl)c2)c1
    -17%	-1%
CCOC(=O)C1=C(CN2CCN(c3ccc(OC)cc3)CC2)NC(=O)NC1c1ccc(Cl)cc1 (configuration not stated)
    -9%	-15%
CC(OC(=O)Cc1coc2cc3c(cc12)CCC3)C(=O)NCc1ccc2c(c1)OCO2 (configuration not stated)
    -8%	/
COc1cc(OC)cc(C(=O)NCC(=O)OCC(=O)NC2CCCc3ccccc32)c1 (configuration not stated)
    -8%	-21%
CCc1ccc(-c2nc(CN3CCCC(C(=O)N4CCN(c5cc(Cl)ccc5C)CC4)C3)c(C)o2)cc1 (configuration not stated)
    ?	?
O=C(CCCN1C(=O)c2ccccc2C1=O)Nc1cccnc1
    -6%	-12%
CCOC(=O)C1CCN(C(=O)CNS(=O)(=O)c2cccs2)CC1
    -15%	-11%
CC1[C@H]2Cc3ccc(O)cc3[C@]1(C)CCN2CCc1ccccc1 (some centres not stated)
    -16%	-9%
Cc1ccc(S(=O)(=O)N2CCN(C(=O)COC(=O)COc3ccc(Cl)cc3C)CC2)c(C)c1
    -12%	-19%
Cc1ccccc1OCC(=O)NNC(=O)CN1C(=O)c2ccccc2C1=O
    -4%	-23%
Clc1cccc(N2CCN(CCNc3nc4ccccc4n4cnnc34)CC2)c1
    -10%	-13%
Cc1ccc(NCc2nnc3n2CCCCC3)cc1
    -16%	-13%
CCCCN(Cc1cccs1)S(=O)(=O)c1cc(-c2cc(C)no2)ccc1C
    -26%	i
O=C(COc1ccc(S(=O)(=O)NCc2ccccc2)cc1)NCC1CCCO1 (configuration not stated)
    -13%	-13%
Cc1cc(C(=O)COc2cccnc2[N+](=O)[O-])c(C)n1Cc1ccco1
    -8%	-12%
O=C(Nc1ccc(N2CCN(C(=O)c3ccccc3)CC2)cc1)c1cccnc1
    -8%	-3%
CCOc1ccc2ccccc2c1/C=N/NC(=O)CNC(=O)c1ccccc1O
    -17%	-8%
CSCCC(c1nnnn1Cc1ccccc1)N1CCN(C/C=C/c2ccccc2)CC1 (configuration not stated)
    -18%	i
COC/C=C/C1=CC2=CC(=O)C(C)(OC(=O)c3cnc4ccccc4n3)C(=O)C2=CN1CCOC (configuration not stated)
    -9%	i
Cc1oc(-c2ccccc2)cc1C(=O)Nc1cccc2ccccc12
    -8%	-18%

3 compounds out of the list, ordered by number of heavy atoms, descending:
Screens in order – Vaccinia Venus	Vaccinia mCherry
CSCCC(c1nnnn1Cc1ccccc1)N1CCN(C/C=C/c2ccccc2)CC1 (configuration not stated)
    -18%	i
O=C(COc1ccc(S(=O)(=O)NCc2ccccc2)cc1)NCC1CCCO1 (configuration not stated)
    -13%	-13%
CCCCN(Cc1cccs1)S(=O)(=O)c1cc(-c2cc(C)no2)ccc1C
    -26%	i

Next records
Screens in order – Vaccinia Venus	Vaccinia mCherry
COC(CNC(=O)C1CCCCC1C(=O)O)OC (configuration not stated)
    -12%	-19%
COc1cccc(C(O)c2cnc(C(C)C)n2C)c1OC (configuration not stated)
    -1%	i
COc1cc(/C=C/C(=O)O)cc(S(=O)(=O)Nc2ccc3cn[nH]c3c2)c1OC
    -4%	-6%
CCOC(=O)c1ccc(CNC(=O)C2CCC(=O)N(CCc3ccccc3)C2)o1 (configuration not stated)
    -20%	-8%
COc1ccc(CCNC(=O)C(=O)NCC2OCCN2S(=O)(=O)c2ccc3c(c2)OCCO3)cc1OC (configuration not stated)
    -22%	i
Cc1nc(N2CCCC2)c2c(C(=O)N3CCN(c4ccc(F)cc4)CC3)c(C)oc2n1
    -6%	i
CCOC(=O)c1ccccc1NC(=O)c1cccc([N+](=O)[O-])c1
    -7%	?
O=C(C=Cc1ccccc1)c1cccs1
    -5%	-11%
Cc1ccc(S(=O)(=O)NNC(=O)C2CCCCC2)cc1
    10%	-14%
COCCCn1c(=S)[nH]c2sc3c(c2c1=O)CCCC3
    -9%	-16%
CN(c1ccc(C(=O)Nc2ccccc2C(=O)N2CCOCC2)cc1)S(C)(=O)=O
    7%	/
COc1ccc(-c2noc(CCC(=O)Nc3ccccc3Cl)n2)cc1OC
    -10%	-8%
COc1ccc(CCC(=O)Nc2ccc(C)c([N+](=O)[O-])c2)cc1
    -6%	-1%
Cc1ccc(NC(=O)[C@H](Cc2ccccc2)NC(=O)CC[C@H]2O[C@@H](n3ccc(=O)[nH]c3=O)[C@H](O)[C@@H]2O)cc1C
    16%	11%
Cc1ccc(O)c(C(=O)CC(=O)c2ccccc2Cl)c1
    -18%	-12%
COc1ccccc1C(=O)NCCC(=O)NN1C(=O)NC2(CCCCC2)C1=O
    -8%	i
CC(=O)c1n[nH]nc1NC(=O)c1ccccc1
    -12%	-4%
Cc1onc(-c2ccccc2)c1CNS(=O)(=O)c1ccccc1
    -16%[7.34 µM]	-8%[7.34 µM]
CC12CC3(C)CC(C)(C1)CC(C(=O)NCCc1ccc(S(N)(=O)=O)cc1)(C2)C3
    -3%	-18%
O=C1CCc2cc(S(=O)(=O)N3CCC(C(=O)NCc4ccccc4Cl)CC3)ccc2N1
    2%	1%

Single entries from above:
For Vaccinia Venus, `CC12CC3(C)CC(C)(C1)CC(C(=O)NCCc1ccc(S(N)(=O)=O)cc1)(C2)C3` shows -3%
For Vaccinia Venus, `CN(c1ccc(C(=O)Nc2ccccc2C(=O)N2CCOCC2)cc1)S(C)(=O)=O` shows 7%
For Vaccinia Venus, `CC(=O)c1n[nH]nc1NC(=O)c1ccccc1` shows -12%
For Vaccinia Venus, `Cc1onc(-c2ccccc2)c1CNS(=O)(=O)c1ccccc1` shows -16%[7.34 µM]
For Vaccinia mCherry, `Cc1ccc(NC(=O)[C@H](Cc2ccccc2)NC(=O)CC[C@H]2O[C@@H](n3ccc(=O)[nH]c3=O)[C@H](O)[C@@H]2O)cc1C` shows 11%
For Vaccinia Venus, `O=C1CCc2cc(S(=O)(=O)N3CCC(C(=O)NCc4ccccc4Cl)CC3)ccc2N1` shows 2%

Continuation:
Screens in order – Vaccinia Venus	Vaccinia mCherry
COC(=O)c1ccc(NC(=O)Cn2nc(C)cc2C)cc1
    -6%	i
Cc1ccc(S(=O)(=O)CCc2nnc(NC(=O)c3ccco3)s2)cc1
    -5%	i
COc1ccc(N(Cc2cc3cccc(C)c3[nH]c2=O)S(=O)(=O)c2ccc(OC)cc2)cc1
    0%	?
CCc1ccc(S(=O)(=O)NCc2csc(-c3ccccc3)n2)s1
    -26%	/
COC(=O)[C@]1(Cc2ccccc2)N[C@H](CN(C)S(=O)(=O)c2ccc(C(C)(C)C)cc2)[C@@H]2C(=O)N(Cc3ccccc3)C(=O)[C@@H]21
    -16%	i
O=C(O)c1ccc(Oc2c(C(F)(F)F)oc3cc(O)ccc3c2=O)cc1
    -5%	i
COc1ccc2oc(=O)c(-c3nc4ccc(C)cc4[nH]3)cc2c1
    -23%	?
C#CCCCc1nc2ccccc2c(=O)n1N
    -4%	-26%
O=C1[C@@H]2[C@@H]3C[C@@H]([C@H]4ON=C(c5ccc(Cl)cc5Cl)[C@@H]34)[C@@H]2C(=O)N1C1CCCCC1
    -22%	-7%
COc1ccc(-c2nc3cc(C)c(Br)c(C)n3c2CC2CCCCC2)cc1OC
    1%	40%[activator]
Cc1ccc(C(=O)NNC(=O)c2ccncc2)cc1S(=O)(=O)N1CCCCC1
    -16%	i
Cc1csc(SCC(=O)NC(=O)C2CCCCC2)n1
    -6%	i
COc1ccc(Cc2noc(-c3ccccc3)n2)cc1OC
    -26%	i
Cc1ccc(CNC(=O)CS(=O)CC(=O)O)cc1 (configuration not stated)
    -6%	-8%
Cc1ccc(N2N=C(c3ccc(Br)cc3)CCC2=O)cc1
    -2%	-8%
CCOC(=O)[C@]12CCC=C1N(Cc1ccc(Cl)cc1Cl)C(=O)[C@H](CC(=O)N1CCCC1)C2
    -1%	36%[activator]
CC1(C)CC(Nc2ccc(C(F)(F)F)cc2[N+](=O)[O-])CC(C)(C)N1
    -8%	i
O=C(Cc1ccc(-n2cccc2)cc1)NCc1cccs1
    0%	-3%
Cc1ccc(-c2nn3c(=O)cc(CN4CCN(C(=O)Nc5cccc(C(F)(F)F)c5)CC4)nc3s2)cc1
    ?	-22%
O=C(COC(=O)CCS(=O)(=O)c1ccc(Cl)cc1)NC1CCCCC1
    0%	-9%
C#CCn1c(S(=O)(=O)Cc2ccc(C)cc2)nc(-c2ccccc2)c1-c1ccccc1
    -2%	-26%
O=C(CCNS(=O)(=O)c1ccccc1C(F)(F)F)NCCCN1CCOCC1
    -15%	-14%
CN(C)S(=O)(=O)N1CCC(Oc2ccc(C(=O)NCc3cnn(C)c3)cc2)CC1
    -12%	-6%
O=C(O)c1ccc(N/N=C/c2cccc(F)c2)cc1
    4%	-5%
CC(OC(=O)c1ccc(Cl)nc1)C(=O)NC1(C#N)CCCCC1 (configuration not stated)
    -10%	i
CNS(=O)(=O)c1cccc(C(=O)OCc2cc(=O)oc3c(C)c(O)ccc23)c1
    -25%	-8%
Cc1cc(C)n(-c2nc(SCC(=O)N3CCCC3)c3c4c(sc3n2)CCCC4)n1
    -2%	-16%
Clc1ccc(Cn2nc(-c3ccccc3)nc2-c2ccccc2)cc1
    -8%	-13%
O=C(Oc1cccc(C(=S)N2CCOCC2)c1)c1ccc([N+](=O)[O-])cc1[N+](=O)[O-]
    ?	5.6µM*
COc1ccc(-c2csc(C3=C(O)CN(CCCN4CCCC4=O)C3=N)n2)cc1OC
    -19%	-9%
COc1ccc(N2CC(C(=O)NCc3cccnc3)CC2=O)cc1 (configuration not stated)
    -3%	/
CN(CCO)C(=O)c1cn(C2CCCN(Cc3cccc4ccccc34)C2)nn1 (configuration not stated)
    -6%	-6%
CCC(C(=O)N1CCN(c2cc(C)ccc2C)CC1)n1nc(C)n2c(cc3occc32)c1=O (configuration not stated)
    -17%	-28%
Cc1cc(C)cc(OCCSc2nc3ccc(NC(=O)c4ccc5c(c4)OCO5)cc3s2)c1
    -11%	-7%
COc1ccc2c(CN(C)Cc3ccccc3)cc(=O)oc2c1
    -4%	4%
Cn1c(SCC(=O)NCC2CCCO2)ncc(C(=O)Nc2ccccc2)c1=O (configuration not stated)
    -4%	-12%
CCOc1ccc(-c2csc3ncn(-c4ccc(OC)cc4)c(=O)c23)cc1
    -11%	-16%
CCCNC(=O)C1(C)CCN(C(=O)c2c(F)ccc(C)c2F)C1 (configuration not stated)
    -8%	i
CN(C)[C@H]1CCN([C@@H]2CS(=O)(=O)N[C@H]2COCc2ccccc2)C1
    3%	i
O=C(NC(c1ccc(F)cc1)c1ccc2ccccc2n1)C1CCN(Cc2cccc(C(F)(F)F)c2)CC1 (configuration not stated)
    ?	?
Cc1ccc2cc(C#N)c(N3CCCC3)nc2c1C
    -23%	-11%
O=C(Nc1ccc(N2CCCCCC2)cc1)c1ccccc1Cl
    -10%	?
O=C(Nc1cccc(-c2ccc(F)cc2)c1)C1CCCN(Cc2cccnc2)C1 (configuration not stated)
    -29%	?
O=C(NCc1ccccc1Cl)c1cnc(N2CCOCC2)c2ccccc12
    -15%	-6%
CC(C)[C@H](NC(=O)c1ccco1)C(=O)Nc1ccc(OC(F)F)cc1
    -3%	-11%
CCOc1ccccc1C(=O)n1nc2nc(C)cc(C)c2c1N
    -12%	-21%
CCOC(=O)N1CCN(S(=O)(=O)c2ccc(C(=O)Nc3nnc(CC)o3)cc2)CC1
    -12%	-20%
C=C1CCN([C@H](C(=O)NCc2ccco2)C(C)C)S(=O)(=O)c2ccccc21
    -14%	-25%
COc1ccc(NC2CC(=O)N(c3ccc(C(=O)O)cc3)C2=O)cc1 (configuration not stated)
    -13%	-7%
C=CCOc1ccc(/C=C/C(=O)N2CCCN(S(=O)(=O)c3c(C)noc3C)CC2)cc1
    -28%	-9%

(more compounds)
Screens in order – Vaccinia Venus	Vaccinia mCherry
Cn1ccc2cc(S(=O)(=O)N3CCN(C(=O)Nc4ccccc4F)CC3)ccc21
    -7%	i
O=C(c1ccc(Cn2cc(Br)cn2)o1)n1cccn1
    -3%	-11%
CCOC(=O)c1sc(NCCNc2nc(C)c(C(=O)OCC)s2)nc1C
    -1%	/
Cc1ccc(C(=O)CNc2ccc(F)cc2)cc1
    -7%	i
CCn1c(SCC(=O)NC2CCCCC2)nnc1C(C)NC(=O)c1ccccc1F (configuration not stated)
    -12%	-1%
Cc1cccc(Oc2sc(C(=O)c3ccccc3)c(N)c2C#N)c1C
    11%	-20%
Cc1cccc2cc(C3CC(c4ccco4)=NN3S(C)(=O)=O)c(Cl)nc12 (configuration not stated)
    -11%	20%
Cc1cccc(NC(=S)Nc2ccccn2)c1
    -11%	-23%
CCCCn1c(N)c(N(CC(C)C)C(=O)c2cc3ccccc3cc2OC)c(=O)[nH]c1=O
    -10%	i
Cc1ccc(NC(=O)CSc2ncc3ccccn23)cc1
    -4%	-7%
